VDR inhibitor: inhibitors of human vitamin D receptor; VDR-SRC2-3 peptide fluorescence polarization, 2 h; Potency, µM, for the others: max response, negative = inhibition, hits mostly inhibitors; P11473; 400,000 compounds, 0.93% hits; active means well fitted inhibition curve with a large enough effect; inconclusive means small, poorly fitted or top-dose-only effect, or another doubt; inactive means no such curve, though single readings can be large or run the other way; further: series mostly up to about 120 µM
Target sequence (P11473 whole entry, looked up): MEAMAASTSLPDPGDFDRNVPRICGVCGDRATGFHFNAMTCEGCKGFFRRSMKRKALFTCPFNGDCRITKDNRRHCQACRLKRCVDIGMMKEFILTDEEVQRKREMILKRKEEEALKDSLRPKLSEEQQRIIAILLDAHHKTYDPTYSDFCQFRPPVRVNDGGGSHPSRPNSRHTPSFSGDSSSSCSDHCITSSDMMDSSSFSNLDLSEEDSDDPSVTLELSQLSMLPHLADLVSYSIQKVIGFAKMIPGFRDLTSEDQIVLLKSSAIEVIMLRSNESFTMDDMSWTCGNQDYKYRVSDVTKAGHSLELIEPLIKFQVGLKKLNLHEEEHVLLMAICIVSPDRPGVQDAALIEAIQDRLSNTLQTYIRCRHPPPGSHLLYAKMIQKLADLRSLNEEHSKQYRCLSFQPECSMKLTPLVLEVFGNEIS
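The screen uses fluorescence polarization to detect compounds that interfere with recruitment of the SRC2-3 coactivator peptide to VDR; plates are read after 2 h at room temperature.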
Numbers without * were called inactive; ? = inconclusive; & = joins results of further samples. On the % scale 0 is the no-effect control and ±100 the full control effect; potency means the concentration at half of the fitted maximal effect. Some of the compounds tested; the hit share may differ from the screen's.

SMILES | VDR inhibitor
CC(C)CN(CCNC(=O)CCN1N=C(c2ccccc2)CCC1=O)CC(C)C | -1.3%
COc1ccccc1C(=O)Nc1ccc(-c2nc3ccccc3s2)c(C)c1 | 9.8%
CCOc1ccc(-n2cc(-c3ccccc3)c3c(NCc4ccc(F)cc4)ncnc32)cc1 | 0.4%
COc1ccc(OC)c(NC(=O)C2Cc3ccccc3CN2S(=O)(=O)c2ccc(F)cc2)c1 (configuration not stated) | 12.5%
O=C(c1cccc(F)c1)N1CCC2(CC1)CN(C(c1ccccc1)c1ccccc1)C2 | -8.2%
Cc1c(C(=O)N2CCOCC2)c(S(=O)(=O)Nc2ccccc2)c(C)n1C | -13.5%
O=C(Nc1ccccc1Cl)C1CCCN(S(=O)(=O)c2ccc(-n3cnnn3)cc2)C1 (configuration not stated) | -2.1%
Cn1cc(CN2CCCC(C(=O)Nc3ccc(-c4cccc(F)c4)cc3)C2)cn1 (configuration not stated) | -3.9%
COc1ccc(OCC(=O)NNC(=O)c2cccs2)cc1 | 17.8%
CCC(CC)n1[nH]c(=O)cc1N | -0.3%
CCOc1ccc(C(=O)NC2CC(C)(C)NC(C)(C)C2)cc1 | -8.6%
Cc1cc(C(=O)Nc2c(C)n(C)n(-c3ccccc3)c2=O)c2ccccc2n1 | -13.0%
Cc1ccc(C2C=C(c3ccc(Cl)cc3)Nc3nc(NS(=O)(=O)c4ccccc4)nn32)cc1 (configuration not stated) | -22.1%
CC(C)(O)C#Cc1ccc(C(=O)NCc2ccccc2)s1 | 1.9%
Cn1c(=O)c2ncn(CC(=O)O)c2n(C)c1=O | -12.4%
CCCCNC(=S)N(C)N=C1CCC(c2ccccc2)CC1 (configuration not stated) | ?
Cc1cc(=O)n2cccc(O)c2n1 | 6.4%
CC(C)C(=O)NC(c1ccccc1)c1cc([N+](=O)[O-])c2cccnc2c1O (configuration not stated) | -5.6%
COc1ccc(-n2nc3cc(C)c(NC(C)=O)cc3n2)cc1 | -19.0%
CCC(C)NC(=O)CCCc1nnc2n(CC(C)C)c(=O)c3sccc3n12 (configuration not stated) | -1.9%
Cc1c(NC(=O)CN2c3cccc4cccc(c34)S2(=O)=O)c(=O)n(-c2ccccc2)n1C | 0.4%
CCn1cc(C(=O)N2CCN(c3ccccc3)CC2)c(=O)c2cc(S(=O)(=O)N(C)C3CCCCC3)ccc21 | -13.3%
CCCc1cc(=O)n2[nH]c(NCc3cccs3)nc2n1 | 6.7%
C=CCn1c(CCC(=O)Nc2ccc(C)c(Cl)c2)nnc1SCC(=O)Nc1ccccc1C | -11.4%
O=[N+]([O-])c1ccc2cn[nH]c2c1 | 3.8%&2.9%
S=C1SCN(Cc2cccnc2)CN1Cc1ccccc1 | -1.1%
CCOc1ccc(CC(=O)C2=C(N3CCOCC3)CC(C)(C)CC2=O)cc1OCC | -0.4%
COc1ccccc1CNC(=O)N/C=C/c1ccc(Cl)cc1 | 5.3%
CN(c1cccc(NC(=O)c2ccc(C(C)(C)C)cc2)c1)S(C)(=O)=O | -8.3%
C[C@H](NC(=O)NCc1ccc(F)cc1)C(=O)O | 17.7%
C=CCN1C(=O)C(Cc2ccccc2Cl)SC1=Nc1ccc(C(=O)O)cc1 (configuration not stated) | -8.1%
COC(=O)c1scc(-c2ccc(C)cc2)c1S(=O)(=O)Nc1cccc(C(F)(F)F)c1 | 6.4%
CC(=O)CC(=O)Nc1ccc(C(N)=O)cc1 | -21.9%
CN1C(=O)/C(=N/OC(=O)c2ccccc2Br)c2ccccc21 | -23.7%
Cc1ccc(C(=O)NC(=S)Nc2ccccc2C(F)(F)F)cc1C | -4.2%
COc1ccc(-n2c(CCc3ccccc3)nnc2SCC(=O)NCc2ccccc2)cc1 | -3.2%
CN(CC(=O)Nc1ccc2c(c1)OCCO2)S(=O)(=O)c1cccc2cccnc12 | -11.5%
O=C(c1ccccc1OCc1ccc(Cl)cc1)N1CCN(c2ccccn2)CC1 | 9.3%
COC(=O)CSc1n[nH]c(-c2ccncc2)n1 | -7.4%
COc1cc2c(=O)n(Cc3ccccc3Cl)c(=O)n(CC(=O)Nc3ccc(C)c(C)c3)c2cc1OC | -16.4%
CC1(C)CC2CC(C)(CN2C(=O)c2cc(-c3ccccc3O)on2)C1 (configuration not stated) | -5.4%
O=C(CS(=O)(=O)c1ccccc1)Nc1ccccn1 | -11.3%
COc1c([N+](=O)[O-])cc(C(=O)NNC(=O)c2ccc(C)cc2)cc1[N+](=O)[O-] | -4.7%
COc1ccc(N2C(=O)c3ccccc3NC2c2ccc(OC)c(CSc3ccccn3)c2)cc1 (configuration not stated) | 3.8%
COCCn1c(COc2ccc(OC)cc2)nc2ccccc21 | -4.6%

3 entries out of the list above, arranged by the number in VDR inhibitor, ascending:
molecule,VDR inhibitor
CC(=O)CC(=O)Nc1ccc(C(N)=O)cc1,-21.9%
COC(=O)CSc1n[nH]c(-c2ccncc2)n1,-7.4%
COc1ccc(-n2c(CCc3ccccc3)nnc2SCC(=O)NCc2ccccc2)cc1,-3.2%

Following part
SMILES | VDR inhibitor
O=C(CNC(=O)c1cccc(S(=O)(=O)N2CCc3ccccc32)c1)Nc1ccc(F)c(F)c1F | -3.9%
CCCCCCn1c(N)c(C#N)c2ccc([N+](=O)[O-])cc2c1=O | -15.1%
Cc1ccc(S(=O)(=O)Nc2nc3ccccc3nc2N2CCN(c3ccccc3F)CC2)cc1 | 15.5%
O=C(O)CCC(=O)N1CCN(c2ncccn2)CC1 | -4.3%
COC(=O)[C@H](Cc1c[nH]c2ccccc12)NC(=O)CCCc1c[nH]c2ccccc12 | 5.1%
O=S1(=O)[C@H]2C[C@@H]3C=C[C@@]2(CN1Cc1ccccc1F)O3 | 7.5%
CCC(C(=O)OCc1cc(=O)n2nc(CCOC)sc2n1)c1ccccc1 (configuration not stated) | -1.8%
Cc1ccc(NC(=S)N/N=C2\CC(C)(C)Oc3ccc(O)cc32)cc1 | 1.3%
CCn1cc(S(=O)(=O)c2cccc(Cl)c2)c(=O)c2cc(F)c(N3CCN(c4ccccc4)CC3)cc21 | 10.5%
COc1cc(NC(=S)NC(C)=O)ccc1NC(=O)C(C)C | 0.4%
CC(Oc1ccc(F)cc1)C(=O)N1CCC(c2nc3ccccc3s2)CC1 (configuration not stated) | 3.1%
COc1ccc(-c2cnc(SCC(=O)Nc3cc(C)on3)n2Cc2ccco2)cc1 | -13.3%
NC(=O)c1ccsc1NC(=O)COC(=O)COc1ccccc1[N+](=O)[O-] | 28.0%
CS(=O)(=O)N1CCCC(C(=O)NCCc2ccc(Cl)cc2)C1 (configuration not stated) | 10.6%
Cc1ccc(C(=O)O)cc1[N+](=O)[O-] | -1.9%

Some of these compounds in order of count of non-hydrogen atoms, smallest number first:
SMILES | VDR inhibitor
Cc1ccc(C(=O)O)cc1[N+](=O)[O-] | -1.9%
COC(=O)CSc1n[nH]c(-c2ccncc2)n1 | -7.4%
O=C(O)CCC(=O)N1CCN(c2ncccn2)CC1 | -4.3%
O=S1(=O)[C@H]2C[C@@H]3C=C[C@@]2(CN1Cc1ccccc1F)O3 | 7.5%
COc1cc(NC(=S)NC(C)=O)ccc1NC(=O)C(C)C | 0.4%
CS(=O)(=O)N1CCCC(C(=O)NCCc2ccc(Cl)cc2)C1 (configuration not stated) | 10.6%
COCCn1c(COc2ccc(OC)cc2)nc2ccccc21 | -4.6%
Cc1ccc(C(=O)NC(=S)Nc2ccccc2C(F)(F)F)cc1C | -4.2%
CC1(C)CC2CC(C)(CN2C(=O)c2cc(-c3ccccc3O)on2)C1 (configuration not stated) | -5.4%
NC(=O)c1ccsc1NC(=O)COC(=O)COc1ccccc1[N+](=O)[O-] | 28.0%
COc1c([N+](=O)[O-])cc(C(=O)NNC(=O)c2ccc(C)cc2)cc1[N+](=O)[O-] | -4.7%
CN(CC(=O)Nc1ccc2c(c1)OCCO2)S(=O)(=O)c1cccc2cccnc12 | -11.5%
COc1ccc(-c2cnc(SCC(=O)Nc3cc(C)on3)n2Cc2ccco2)cc1 | -13.3%
COc1ccc(-n2c(CCc3ccccc3)nnc2SCC(=O)NCc2ccccc2)cc1 | -3.2%
Cc1ccc(S(=O)(=O)Nc2nc3ccccc3nc2N2CCN(c3ccccc3F)CC2)cc1 | 15.5%
COc1ccc(N2C(=O)c3ccccc3NC2c2ccc(OC)c(CSc3ccccn3)c2)cc1 (configuration not stated) | 3.8%
COc1cc2c(=O)n(Cc3ccccc3Cl)c(=O)n(CC(=O)Nc3ccc(C)c(C)c3)c2cc1OC | -16.4%

(cont.)
SMILES | VDR inhibitor
C1CCN(c2nc(N3CCCCC3)nc(N3CCNCC3)n2)CC1 | 6.0%
COc1cc([N+](=O)[O-])ccc1NC(=O)/C=C/C(=O)O | 0.4%
Cc1cc(F)ccc1NC(=O)CCS(=O)(=O)c1ccc2c(c1)NC(=O)CO2 | 8.5%
Cc1cc2occ(CC(=O)N(C)CC(=O)Nc3ccccc3Cl)c2cc1C | 5.7%
O=C(O)Cn1c(SC2CCCCC2)nc2ccccc21 | 16.1%
CCOC(=O)c1c(C)[nH]c(C)c1S(=O)(=O)N1CCCC(C(=O)NCc2cccc(OC)c2)C1 (configuration not stated) | 8.7%
COc1ccccc1Nc1ncnc2c1c(C)c(C)n2CCO | -9.9%
CC(C)OC(=O)c1ccc(NC(=O)CSc2nc(-c3cccs3)cc(C(F)(F)F)n2)cc1 | -6.8%
CN1OC[C@@H]2CN(Cc3cc(Cl)cc(Cl)c3)[C@H](c3cccc(Oc4ccccc4)c3)C[C@@H]21 | 0.9%
CCCCCCCCCCOC(=O)C[N+](C)(C)C/C=C(/C)Cl | -25.0%
Nc1cc(C(F)(F)F)cc([N+](=O)[O-])c1N | -25.8%
COc1cc(C(=O)NCC(=O)OCc2ccccc2Cl)cc(OC)c1OC | 2.6%
O=C(CSc1ncccn1)Nc1ccc(N2CCOCC2)cc1 | -5.0%
COC(=O)c1ccc(-c2ccc(C3C4C=CCC(C)C4C(=O)N3Cc3ccccc3)c(F)c2)cc1 (configuration not stated) | -14.4%
COc1ccc(C2NC3=C(CCC3)C3(C#N)C4(N=C(N)C23C#N)OCCO4)cc1 (configuration not stated) | 9.8%
CCC(=O)Nc1ccc(C(=O)COC(=O)Cc2ccsc2)cc1 | 7.4%
CC(C)(C)OC(=O)N1CCC(c2c(C(=O)N3CCN(c4ccccc4F)CC3)cnn2C(C)(C)C)CC1 | -19.8%
Cc1cc(=O)oc2cc(NC(=O)C3CC(=O)N(Cc4ccccc4)C3)ccc12 (configuration not stated) | 7.7%
CC(=O)Nc1ccc(OC(=O)c2cc([N+](=O)[O-])ccc2Cl)cc1 | 1.7%
CC(C)(C)c1ccccc1OCCOCCN1CCCCCC1 | 2.1%
Cn1cc(CN2CCC(CO)CC2)c(-c2ccc(Oc3ccccc3)cc2)n1 | 2.2%
CCc1ccccc1NC(=O)c1cc(S(=O)(=O)NCCc2ccc(OC)c(OC)c2)ccc1F | 9.4%
Cc1ccccc1C(=O)/C=C1/SCC(=O)N1C | 5.8%
CCOc1ccc(OCCC(=O)NNC(=O)c2nn(C)c(=O)c3ccccc23)cc1 | -2.8%
S=C(NCCc1ccccc1)Nc1ccc(Cl)cc1 | -10.8%
CCNC(=O)Cc1c(OC)ccc2cc(Br)ccc12 | -17.5%
Cn1c(=O)oc2cc(S(=O)(=O)N3CCC(C(=O)NCc4ccccc4Cl)CC3)ccc21 | -7.1%&-16.8%
Cc1cc(C)cc(NC(=O)C2CCCN(c3nnc(C)c4c(C)n(-c5ccccc5)nc34)C2)c1 (configuration not stated) | 6.9%
COC(=O)Cn1cnc2scc(-c3ccc(C)c(C)c3)c2c1=O | 4.3%
COc1ccc(-c2nnc(SCC(=O)NC(=O)NCc3ccco3)o2)cc1 | -5.5%
O=C(CNC(=O)c1ccccc1F)OCc1nc2ccccc2s1 | -16.7%
Cc1ncoc1C(=O)N1CCCC(N2CCN(c3ccccc3F)CC2)C1 (configuration not stated) | 4.6%
Cc1ccc(S(=O)(=O)Cn2cnnn2)cc1 | -10.8%
COc1ccc(-c2nc(CS(=O)(=O)CC(=O)NCc3ccccc3Br)c(C)o2)cc1 | ?
O=C(c1ccc(Cl)nc1)c1cccs1 | ?
CCc1ccc(-c2cc(C(=O)Nc3c(C)n(C)n(-c4ccccc4)c3=O)c3ccccc3n2)s1 | 27.0%
CCOC(=O)N1CCc2c(sc(NC(=O)CN3CCOCC3)c2C#N)C1 | 6.0%
COc1ccc(C(=O)C2CCCN(C(=O)c3noc4c3CCCC4)C2)c(C)c1 (configuration not stated) | -8.1%
CCN(CC)P(=O)(Nc1ccccc1Br)c1ccc(N(C)C)cc1NC(=O)c1ccco1 (configuration not stated) | -15.2%
Cc1ccccc1Cn1nnc2sc3c(c2c1=O)CCCC3 | -3.5%
Nc1cccc(C(=O)Nc2ccc(N)cc2Cl)c1 | 3.5%
CCCCN(CC)CCNS(=O)(=O)c1ccc2c(c1)oc(=O)n2C | -13.2%

Source: PubChem BioAssay (National Center for Advancing Translational Sciences (NCATS))
